miR-21 FLuc = qHTS Assay for Modulators of miRNAs and/orActivators of miR-21 | HeLa miR-21 FLuc reporter, luciferase, 48 h | Potency, µM (titrated, usually from 38.3 µM), for the others: at the highest dose reporter change, positive = more light | 340,000 tested, under 10 active | AID 2288, 2010; active = well fitted rising curve with a large enough effect; inconclusive = small, poorly fitted or top-dose-only effect; inactive = no such curve, though single readings can be large or run the other way;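 note: % of control where 0% means no effect; miR-21 action dims this reporter so a rising signal means less miR-21 action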
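HeLa miR-21-FLuc reporter line, endogenous miR-21; 2000 cells/well in DMEM/10% FBS; compound titration up to ~40uM final, 48 h, 37 degree Celsius; luciferase detection reagent, 15 min lysis, CCD luminescence.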
GLA inh pH 4.5 = qHTS Assay for Inhibitors of Human alpha-Galactosidase at pH 4.5 | AID 1467, 2008 | activity change, negative = inhibition, % at 105 µM | purified enzyme, 4-MU-alpha-Gal fluorescence, pH 4.5 | 230,000 tested, under 10 active; inconclusive = small, poorly fitted or top-dose-only inhibition, or a rising curve; inactive = flat fitted curve, though single readings scatter; no compound was filed as active;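 note: 0% = full activity with enzyme and -100% = basal without enzyme; dose as in the result columns while the protocol names 77 µM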
Rango complex inh = qHTS Assay for Inhibitors of Rango (Ran-regulated importin-beta cargo) - Importin beta complex formation; Rango CFP/YFP FRET sensor + importin beta, 45 min; Importin subunit beta-1 (Homo sapiens), Q14974; 340,000 tested, 0.031% active; AID 540263, 2011; Potency, µM (highest dose often 92.2 µM), for inactives: top-dose inhibition of complex formation; active = rising FRET ratio curve, often small or poorly fitted; inconclusive = mostly compound fluorescence or quenching in the first reads; inactive = flat curves in all reads;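 note: potency is the fitted concentration of half-maximal effect; 0% = DMSO wells and 100% = buffer wells lacking importin beta; nearly all actives have a fitted effect of over 15% in size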
Target sequence (Q14974 whole entry, looked up): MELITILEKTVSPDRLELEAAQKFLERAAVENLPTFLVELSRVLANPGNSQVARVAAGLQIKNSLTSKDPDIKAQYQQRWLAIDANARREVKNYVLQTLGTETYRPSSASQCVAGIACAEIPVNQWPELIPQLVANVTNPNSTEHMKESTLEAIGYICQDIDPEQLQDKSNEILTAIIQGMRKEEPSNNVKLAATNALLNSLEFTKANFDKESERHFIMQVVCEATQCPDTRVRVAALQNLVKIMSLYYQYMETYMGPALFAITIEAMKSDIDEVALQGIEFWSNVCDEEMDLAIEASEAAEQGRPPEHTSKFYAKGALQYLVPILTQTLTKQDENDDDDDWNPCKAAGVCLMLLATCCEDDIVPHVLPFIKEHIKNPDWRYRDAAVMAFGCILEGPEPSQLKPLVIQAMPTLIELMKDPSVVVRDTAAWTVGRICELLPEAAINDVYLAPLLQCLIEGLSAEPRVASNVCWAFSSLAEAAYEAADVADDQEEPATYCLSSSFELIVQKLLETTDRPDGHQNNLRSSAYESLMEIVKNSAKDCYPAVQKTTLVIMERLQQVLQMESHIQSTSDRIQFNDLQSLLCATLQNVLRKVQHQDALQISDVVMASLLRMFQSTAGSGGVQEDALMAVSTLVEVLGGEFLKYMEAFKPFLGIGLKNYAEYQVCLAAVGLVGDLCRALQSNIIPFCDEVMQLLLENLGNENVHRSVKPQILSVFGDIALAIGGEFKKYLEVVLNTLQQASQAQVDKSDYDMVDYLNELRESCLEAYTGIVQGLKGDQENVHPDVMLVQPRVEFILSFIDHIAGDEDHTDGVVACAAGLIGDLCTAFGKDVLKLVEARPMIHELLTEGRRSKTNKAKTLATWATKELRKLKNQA
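FRET biosensor Rango (snurportin 1 IBB between N-terminal EYFP and C-terminal Cerulean), 50 nM in PBS/1 mM DTT/0.02% Tween-20/0.1% BSA, preincubated 5 min RT with compound; 0.125 microM importin beta added, 45 min RT, CFP/YFP FRET ratio read.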
Rango release inh = qHTS Assay for Inhibitors of RanGTP induced Rango (Ran-regulated importin-beta cargo) - Importin beta complex dissociation; Potency, µM (top dose mostly 46.1 µM), for inactives: at the highest dose activity change, negative = inhibition; 340,000 tested, 0.071% active; Biochemical FRET Rango-importin beta, RanGTP-induced dissociation; active means falling FRET ratio curve, often poorly fitted, with flat reads before Ran was added; inconclusive means other falling curves, or compound fluorescence or quenching; inactive means flat or rising ratio curve;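 note: potency is the fitted concentration of half-maximal effect; % of control where 0% means no effect; nearly all actives have a fitted effect of over 45% in size; -100% = wells without RanGTP and RCC1; the record marks most hits as doubtful in a second field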
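Compounds sat 5 min at room temperature with 0.1 uM Rango biosensor plus 0.25 uM importin beta, then FRET pre-read. RanGTP-RCC1 (0.6 uM Ran, 2mM GTP, 0.2 uM RCC1) added for 45 min, and the CFP/YFP post-read measured blocked complex dissociation.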
* marks the source's active call; other numbers are inactive results; ? = inconclusive; . = not tested or not shown; & = joins results of further samples. A portion of the library (hit frequency here may not be typical).

SMILES	miR-21 FLuc	GLA inh pH 4.5	Rango complex inh	Rango release inh
O=C(Cn1nnc2ccccc21)NCc1ccccc1	-15.9%	-9.4	0.2%	13.6%
CC(=O)NC1CC2CCCC(C1)N2C(=O)Nc1cccc(Cl)c1 (stereo not given)	.	.	1.1%	11.9%
CCOc1ccccc1NC(=O)C(OC(=O)C1CC1)c1ccccc1 (stereo not given)	-1.0%	-2.1	-2.0%	-0.2%
Cc1cccc(OCCNC(=O)c2cccc(Oc3ccc(C(F)(F)F)cc3[N+](=O)[O-])c2)c1	12.5%	-10.0	-0.4%	1.9%
CC1(C)CC(=O)c2c(nn(-c3ccccc3)c2-c2ccncc2)C1	-2.9%	0.8	-2.8%	0.6%
CS(=O)(=O)N1CCN=C1SCc1ccc([N+](=O)[O-])cc1	-0.3%	4.5	4.9%	7.5%
CCOC(=O)c1nn(-c2ccc(C)cc2)cc1O	-30.4%	-4.5	-4.2%	5.0%
Cc1cccc(N2CCCC2=Nc2ccc(Br)cc2C#N)c1	-0.7%	-4.0	1.0%	1.1%
Cc1ccc(Nc2nc(N)nc(COC(=O)C3=COCCO3)n2)cc1	.	.	3.1%	-4.7%
CCOC(=O)C1CCCN(C(=O)c2cc3c(=O)n(C)c4ccccc4c3n2C)C1 (stereo not given)	-0.4%	3.9	5.4%	3.2%
O=C(COC(=O)Cc1ccsc1)Nc1ccc(Br)cc1	.	.	1.2%	-3.7%
CCOC(=O)CN(C(=O)CNC(=O)c1cccs1)C(C(=O)NC1CCCC1)c1cccnc1 (stereo not given)	-1.9%	-3.3	?	-6.7%
Fc1cccc(-n2cc(-c3ccccc3)c3c(=S)nc[nH]c32)c1	17.6%	.	-0.8%	9.8%
C=C1CCN([C@@H](C)C(=O)NCc2ccc(OC)cc2)S(=O)(=O)c2ccccc21	7.3%	9.2	-2.8%	-4.5%
N#Cc1ccc(CN2CCN(C(=O)c3ccc(S(=O)(=O)N4CCCCCC4)cc3)CC2)cc1	.	.	?	11.2%
COC(=O)c1ccccc1S(=O)(=O)N1CCC(C(=O)Nc2ccc(N3CCOCC3)cc2)CC1	.	.	2.0%	-12.7%
C[C@H](NC(=O)c1nc[nH]c1C(=O)N1CCN(c2ccccc2)CC1)c1ccccc1	.	.	2.4%	-6.8%
COc1ccc(NC(=O)C(CCSC)N2C(=O)c3ccccc3C2=O)cc1 (stereo not given)	-0.1%	5.4	-2.5%	3.5%
COC(=O)c1sccc1N/N=C/c1cccc(OC)c1O	-15.9%	9.8	-2.5%	2.6%
COc1ccc(NC(=O)c2ccc3c(c2)N(C)CCS3)cc1	-46.3%	.	-5.6%	-18.2%
O=S(=O)(NC1CCCCC1N1CCC(O)CC1)c1ccccc1 (stereo not given)	-5.4%	.	?	-5.8%
O=C(/C=C/c1ccc(Cl)c(Cl)c1)N1CCc2ccccc21	-46.3%	-0.9	-1.0%	-1.6%
Cc1ccc2c(c1)C(=O)N(CCCCO)C2=O	-1.8%	-0.4	0.6%	11.0%
Cc1oc(-c2ccccc2F)nc1CS(=O)(=O)CC(=O)NC(C)CCc1ccccc1 (stereo not given)	1.7%	.	1.9%	0.4%
CC(C)(C)OC(=O)C[C@@H]1C/C=C\C[C@H](CC(=O)N[C@H](CO)Cc2ccccc2)C(=O)N[C@@H](Cc2ccccc2)COC1=O	.	.	?	25.2%

Profiles from above:
Cc1ccc(Nc2nc(N)nc(COC(=O)C3=COCCO3)n2)cc1 is listed with miR-21 FLuc: .; GLA inh pH 4.5: .; Rango complex inh: 3.1%; Rango release inh: -4.7%
Fc1cccc(-n2cc(-c3ccccc3)c3c(=S)nc[nH]c32)c1 is listed with miR-21 FLuc: 17.6%; GLA inh pH 4.5: .; Rango complex inh: -0.8%; Rango release inh: 9.8%

Next section.
SMILES	miR-21 FLuc	GLA inh pH 4.5	Rango complex inh	Rango release inh
COc1ccc(-c2csc3nc(-c4cccnc4)nc(Cl)c23)cc1OC	8.9%	-0.4	-0.8%	-14.2%
Cc1ccc(S(=O)(=O)NC(=O)NN2CC3CCCC3C2)cc1 (stereo not given)	-11.7%	4.1&-2.2	0.3%	18.2%
CCN1CCN(c2ccc(S(=O)(=O)N3CCOCC3)cc2NC(=O)/C=C/c2cccc(OC)c2OC)CC1	.	.	0.6%	1.5%
O=C(CC(NC(=O)c1ccccc1Cl)c1ccccc1)NCCc1ccc(Cl)cc1 (stereo not given)	0.0%	7.0	-5.0%	-1.7%
COc1ccccc1NC(=O)NS(=O)(=O)c1ccc(C)cc1	-1.1%	0.1	3.5%	-0.7%
COCCn1c(/C=C/c2ccccc2)nc2ccccc21	-38.8%	.	-0.2%	0.5%
O=C(NCCCNC(=O)c1ccccc1F)c1ccco1	0.3%	.	-2.0%	-7.3%
O=c1cc(-c2ccc(F)cc2F)[nH]c2ccccc12	-8.3%	6.5&11.8	.	.
CCOc1cc2sc(N3CCC(C(=O)NCCCN4CCCC4=O)CC3)nc2cc1Br	-8.4%	.	1.7%	9.2%
CC1(c2nnc(Cc3ccccc3)o2)CC(c2ccncc2)=NO1 (stereo not given)	.	.	1.1%	-5.6%
O=C(NC(=S)Nc1nc2c(s1)CSc1ccccc1-2)c1ccccc1	?	-4.1	-2.6%	2.3%
c1ccc(-c2ccc(C3=Nn4c(nnc4-c4cccs4)SC3)cc2)cc1	7.3%	1.0	-0.1%	-16.5%
CCOc1ccc(C(=O)N2CCN(Cc3ccccc3)CC2)cc1	-16.1%	1.1	8.9%	0.3%
CC(CCc1ccccc1)NC(=O)CN1CCSc2ccccc21 (stereo not given)	-2.9%	8.6	-1.7%	-0.1%
Cc1ccc2nc(-c3ccc(NC(=O)CN(C)S(=O)(=O)c4ccccc4)cc3)sc2c1	-63.6%	-7.1	.	.
Cc1nc(-c2ccc(S(=O)(=O)N3CCN(C4c5ccccc5-c5ccccc54)CC3)s2)cs1	0.2%	-4.7	4.4%	?
C/C(N)=C(/C#N)C(=O)COC(=O)CNS(=O)(=O)c1c(F)cccc1F	-1.6%	5.9	?	-9.7%
Cc1ccc(S(=O)(=O)c2cc3ccc(O)cc3oc2=O)cc1C	-3.8%	.	-1.0%	?
Cc1ccccc1-c1nnc(CN2CCC(C)CC2)o1	-62.2%	.	10.9%	1.5%
CN1CCN(S(=O)(=O)c2ccc(Cl)c(C(F)(F)F)c2)CC1	.	.	-3.2%	8.0%
COc1ccc(NC(=O)NCC(C)CSc2ccc(C)cc2)c(OC)c1 (stereo not given)	4.5%	.	1.1%	5.5%
CCOc1ccc(NC(=O)CCCCn2c(=O)[nH]c3ccsc3c2=O)cc1	-3.3%	-2.2	-2.3%	-21.9%
CC1CCN(C(=O)CS(=O)(=O)Cc2ccccc2)CC1	-44.2%	.	-3.1%	-16.5%
Cn1c(SCC(=O)NNC(=O)Nc2ccc(Cl)cc2)nnc1-c1ccccc1	-1.4%	4.2	3.1%	15.6%
O=C(Nc1ccc(F)cc1)C1CC(=O)n2c(nc3ccccc32)N1 (stereo not given)	-3.6%	5.0	-0.7%	4.4%

The list goes on; it opens with the 2 that closed the last part.
SMILES	miR-21 FLuc	GLA inh pH 4.5	Rango complex inh	Rango release inh
Cn1c(SCC(=O)NNC(=O)Nc2ccc(Cl)cc2)nnc1-c1ccccc1	-1.4%	4.2	3.1%	15.6%
O=C(Nc1ccc(F)cc1)C1CC(=O)n2c(nc3ccccc32)N1 (stereo not given)	-3.6%	5.0	-0.7%	4.4%
Cc1ccc(N(Cc2ccccc2)C(=O)c2ccc(S(=O)(=O)N3CCOCC3)cc2)cc1	.	.	-0.1%	7.9%
CC(C)(C)OC(=O)[C@H](Cc1ccccc1)NC(=O)c1[nH]cnc1C(=O)Nc1ccc(Cl)cc1	9.2%	-23.4	-0.3%	7.5%
O=P1(NC2CCCC2)OCC2(CO1)COP(=O)(NC1CCCC1)OC2 (stereo not given)	.	.	0.6%	9.2%
COc1ccc(-n2c(CCC(=O)O)ccc2-c2ccc(F)cc2)c(OC)c1	-1.4%	.	1.1%	13.3%
c1ccc(CCCNc2ncccn2)cc1	-36.3%	20.1	-1.3%	16.9%
O=C(NCC1(N2CCOCC2)CCCCC1)c1cccc(S(=O)(=O)N2CCc3ccccc3C2)c1	0.1%	-2.8	?	1.8%
O=C(C1CCN(S(=O)(=O)c2ccc(Cl)cc2)CC1)N1CCCCCCC1	1.7%	.	-0.1%	-10.6%
CCN(C(=O)COC(=O)Cc1ccc(F)cc1)c1c(N)n(Cc2ccccc2)c(=O)[nH]c1=O	.	.	0.2%	-18.9%
Cc1ccc(-c2nc(C(=O)NCCCN(C)C)cc3c2[nH]c2ccccc23)cc1	21.1%	.	1.5%	14.7%
COCCN(C(=O)c1cccc(N2C(=O)CCC2=O)c1)c1nc(-c2ccc([N+](=O)[O-])cc2)cs1	.	.	0.0%	-2.7%
Cc1ncoc1C(=O)NC1CCCc2c1cnn2-c1ccc(C(C)(C)C)cc1 (stereo not given)	21.1%	.	4.6%	0.5%
Cc1nc(S(=O)(=O)c2ccc(Br)cc2)nc2c1CCC2	-1.8%	2.1	4.7%	?
O=C(N(Cc1ccccc1)c1ccccn1)C12CC3CC(CC(C3)C1)C2	13.1%	2.1	-5.1%	11.5%
COc1ccc(CSc2nnc3[nH]c(=O)cc(N)n23)cc1	-18.5%	0.1	0.9%	12.6%
COc1cccc(C2CC(c3cccs3)=NN2C(=O)c2ccco2)c1O (stereo not given)	0.6%	.	1.0%	0.4%
C=CC(=O)NC(NC(=O)C=C)c1ccc(Br)cc1	23.0%	7.1	-3.2%	-5.9%
Cc1ccc(S(=O)(=O)N2CCCOC2CNC(=O)C(=O)NCc2ccncc2)cc1 (stereo not given)	-3.0%	5.2	7.8%	8.4%
CCN1CC(CN(C)Cc2cn(-c3ccc(C)cc3)nc2-c2ccc(F)cc2)CC1=O (stereo not given)	-5.4%	-15.7	-1.9%	-9.7%
COC(=O)c1cc(S(=O)(=O)NCC2CCN(Cc3ccc(C)cc3)CC2)c[nH]1	-1.6%&-6.2%	.	0.0%	26.5%
S=c1[nH]ccn1-c1ccccc1Cl	3.0%&-3.1%	6.8&3.0	0.1%	-14.2%
Cc1ccc(/C=N/NC(=O)c2ccc(N(C)S(=O)(=O)c3ccccc3)cc2)cc1	-0.4%	.	0.9%	?
COc1cc(-c2nc(Cc3ccccc3Cl)no2)cc(OC)c1OC	-7.0%	-11.6	0.6%	2.5%
O=C(CC12CC3CC(CC(C3)C1)C2)NCc1ccccc1	-1.0%	.	-0.4%	-2.5%
CCOC(=O)c1c(NC(=O)C2C3C=CC(C3)C2C(=O)O)sc2c1CC(C)(C)OC2 (stereo not given)	8.5%	-5.3	?	12.2%
C=CCn1c(SCC(=O)NC(=O)NCCC)nnc1C1CCCCC1	-0.4%	1.6	-2.9%	-3.5%
SMILES	miR-21 FLuc	GLA inh pH 4.5	Rango complex inh	Rango release inh
Cc1sc(NC(=O)c2ccco2)c(C(=O)c2ccc(Cl)cc2)c1C	-11.2%	2.8	0.7%	-10.1%
Fc1ccccc1OCCCN1CCOCC1	-13.0%	3.1	0.9%	-8.9%
COc1cc(CNc2ccc3[nH]c(=O)[nH]c3c2)ccc1OCc1ccc(F)cc1Cl	-10.6%&-17.4%	.	-2.8%	2.2%
COCCSc1ccccc1C(=O)Nc1nnc(COC)s1	-5.7%	2.4	2.6%	-9.4%
CN(c1ccccc1)S(=O)(=O)c1cccc(NC(=O)CN2CCCc3ccccc32)c1	26.8%	-2.2	2.2%	1.9%
Cc1cccc(N2CC(C(=O)NCC3COc4ccccc4O3)CC2=O)c1C (stereo not given)	.	.	0.2%	1.2%
O=C1CCC(=O)N1c1ccc(-c2nc3sc4c(c3c(=O)o2)CCC4)cc1	-0.2%	3.8	-6.5%	-1.5%
CC1CCCN(C(=O)c2ccc3c(c2)OCCO3)C1 (stereo not given)	.	.	-1.1%	2.6%
